From PubChem
Vaccinia Venus – qHTS for Stage-Specific Inhibitors of Vaccinia Orthopoxvirus: Venus Reporter Primary qHTS; Vaccinia virus Venus reporter expression, fluorescence; Potency, µM (highest dose often 36.5 µM), for inactives: top-dose activity change, negative = inhibition, actives largely listed as inhibitors; hit rate 0.46% among 330,000; AID 720580, 2013; active means well fitted inhibition curve with a large enough effect; inconclusive means small, poorly fitted or top-dose-only effect; inactive means no such curve, though single readings can be large or run the other way; tested in A549 cells; further: nearly all actives have a fitted effect of over 30% in size; inactives centre near -10
Vaccinia mCherry – qHTS for Stage-Specific Inhibitors of Vaccinia Orthopoxvirus: mCherry Reporter Primary qHTS; AID 720579, 2013; hit rate 0.63% among 310,000; Potency, µM (highest dose often 36.5 µM), without a hit: at the top dose activity change, negative = inhibition, usual class: inhibitors; Vaccinia virus mCherry reporter infection, fluorescence; about a quarter of the inactives have no number; active = well fitted inhibition curve with a large enough effect; inconclusive = small, poorly fitted or top-dose-only effect; inactive = no such curve, though single readings can be large or run the other way; tested in A549 cells; further: nearly all actives have a fitted effect of over 35% in size; inactives centre near -10
* = called active by the depositor; i = inactive; ? = inconclusive; / = no result given; & = joins results of further samples; [ ] = remark or other dose. On the % scale 0 is the no-effect control and ±100 the full control effect; potency means the concentration at half of the fitted maximal effect. Outcome played no part in choosing rows; 0.88% or so of the library scored in one or more.

Under each structure: Vaccinia Venus | Vaccinia mCherry
[1] COc1cc2c(cc1OC)C(c1ccccc1)NCC2 (centres undefined)
    -6% | i
[2] Cc1ccccc1CN1CCC(CNc2ncnc3onc(-c4ccc(F)cc4)c23)CC1
    -14% | -11%
[3] Cc1cccc(-n2c(O)c(C=Nc3c(C)n(C)n(-c4ccccc4)c3=O)c3ccccc3c2=O)n1
    8%&16% | i
[4] Cc1ccc(OCC(=O)Nc2cccc(OCc3cc(=O)n4cccc(C)c4n3)c2)cc1C
    -14% | -1%
[5] COc1ccc(Nc2c(-c3cc(Br)ccc3O)nc3ncccn23)cc1OC
    -23% | -22%
[6] CC(=O)OCc1ccc(C2=CC(=O)CC(C)(C)C2=O)cc1
    -3% | i
[7] CCCCNC(=S)NCc1ccc2c(c1)cc(C)n2C
    3% | -6%
[8] CC1(C)C(c2ccccc2)=[N+]([O-])C2(CCCCC2=O)N1O (centres undefined)
    5% | 3%
[9] Cc1cc(NC(=O)CSc2nc(C3CCCCC3)nc3ccccc23)no1
    ? | /
[10] CN(Cc1ccccc1)C1CCCN(C(=O)c2ccc(Cl)s2)C1 (centres undefined)
    -19% | -19%
[11] COc1ccc(NC(=S)NCc2cccs2)cc1OC
    -2% | -2%
[12] CCOc1ccc(N(CC)C(=O)c2cc3c(s2)-c2ccc(Cl)cc2SC3)cc1
    -10% | 71%[activator]
[13] CC(C)c1ccc(OCc2ccc(C(=O)O)o2)cc1
    6% | -14%
[14] COc1cc(/C=C\C(=O)Nc2cc(=O)n(C)c(=O)n2C)cc(OC)c1OC
    -1% | -7%
[15] CCSCc1nnc(SCC(=O)Nc2ccc(OC)cc2)n1C
    -7% | -16%
[16] Cc1cc(C)cc(OCC(=O)NCCN2CCOCC2)c1
    -10% | /
[17] COc1ccccc1C(CNC(=O)c1cccc(NS(=O)(=O)c2ccc(Br)cc2)c1)N(C)C (centres undefined)
    -27% | -3%
[18] COC(=O)CSc1ncnc2scc(-c3ccccc3)c12
    -20% | -15%
[19] CCOC(=O)CNc1nc(OCC#N)nc(N2CCOCC2)n1
    6% | -9%
[20] Cc1[nH]c2ccccc2c1C(=O)CCl
    ? | ?
[21] O=C(NCc1ccc2c(c1)OCO2)c1cc(COc2c(F)cccc2F)on1
    -18% | i
[22] CCOC(=O)c1ccc(/C=C2\c3ccccc3C(=O)N2c2ccccc2)cc1F
    -28% | -14%
[23] O=C(NC(NC(=S)N1CCOCC1)C(Cl)(Cl)Cl)c1cccc2ccccc12 (centres undefined)
    -23% | i
[24] COC(=O)C1=C(c2cccc(C#N)c2)C[C@@H]2CC[C@H]1N2C(=O)NCCO
    1% | i
[25] COc1ccc(-c2noc(N3CCCC(C(=O)Nc4ccc(C(C)=O)cc4)C3)n2)cc1 (centres undefined)
    -5% | -10%
[26] CCCc1cc(=O)[nH]c(SCC)n1
    0% | 0%
[27] COc1cccc(NC(=S)N2CCn3cccc3C2c2cccnc2)c1 (centres undefined)
    -21% | -1%
[28] COc1cc2c(cc1OC)C(c1ccc(F)cc1)N(c1ccccc1)C(=O)C2 (centres undefined)
    3% | -3%
[29] Cc1ccccc1CNC(=O)c1oc2c(c1C)-c1nn(Cc3ccc(Cl)cc3)cc1CC2
    -22% | -17%
[30] O=C(COC(=O)Cc1c(Cl)cccc1Cl)Nc1ccccc1-c1ccccc1
    -17% | -15%

Structural class, the compounds so far with a furan ring, fused or not (2)
Under each structure: Vaccinia Venus | Vaccinia mCherry
[13] CC(C)c1ccc(OCc2ccc(C(=O)O)o2)cc1
    6% | -14%
[29] Cc1ccccc1CNC(=O)c1oc2c(c1C)-c1nn(Cc3ccc(Cl)cc3)cc1CC2
    -22% | -17%

Remaining list, next part
Under each structure: Vaccinia Venus | Vaccinia mCherry
[31] CN1CCN(CCCNC(=O)c2ccc(CS(=O)(=O)c3ccc(Br)cc3)o2)CC1
    1% | -2%
[32] COc1ccc(C)cc1NC(=O)CCc1c(C)nn(-c2ccc(N3CCCCC3)nn2)c1C
    -5% | -6%
[33] O=C(COC(=O)CCc1c[nH]c2ccccc12)NCCc1ccccc1
    -14% | i
[34] O=C(CCn1c(=O)oc2ccccc21)Nc1cccc(Cl)c1
    -15% | i
[35] CN1CCN(Cc2ccccc2Sc2ccccc2)CC1
    -19% | -10%
[36] CCCCN(C)c1c(C)nc2ccc(C(=O)N3CCN(C(C)=O)CC3)cn12
    -6% | 9%
[37] Clc1ccc(-n2ncc3c(N4CCCC4)ncnc32)cc1
    -11% | -2%
[38] COC(=O)c1cc(-c2ccc(C)cc2)c2c(=O)n(C)c(=O)n(C)c2n1
    -10% | -10%
[39] c1ccc(SCc2nc(-c3ccncc3)n[nH]2)nc1
    -16% | -8%
[40] COc1ccc(NC(=S)NC(NC(=O)CF)C(Cl)(Cl)Cl)cc1[N+](=O)[O-] (centres undefined)
    -20% | i
[41] O=C(Nc1nc2c(Cl)cccc2s1)c1ccc(S(=O)(=O)N2CCc3ccccc32)cc1
    ? | ?
[42] CC(=O)OCC(=O)N1CCN(c2ccc([N+](=O)[O-])cc2)CC1
    6% | -11%
[43] COc1ccc(-c2n[nH]c(C(F)(F)F)c2-c2cc3ccccc3o2)c(O)c1
    ? | ?
[44] CCN(CCCNC(=O)CSc1cc(=O)n(CC)c2ccccc12)c1cccc(C)c1
    -12% | -15%
[45] Cc1cccc(Cn2cccc(C(=O)Nc3ccc4c(c3)OCCO4)c2=O)c1
    -12% | -6%
[46] O=[N+]([O-])c1cccc(O)c1
    -16% | -1%
[47] CC(C)c1ccc(CNc2n[nH]c(-c3ccco3)n2)cc1
    -5% | -10%
[48] Cc1ccc(S(=O)(=O)NC(CC(C)C)C(=O)NCC(C)(C)N2CCOCC2)cc1 (centres undefined)
    -4% | i
[49] CC(C)(C)OC(=O)N[C@@H](CCCCNC(=O)OCc1ccccc1)c1nnc([C@H](CCCCNC(=O)OCc2ccccc2)NC(=O)OC(C)(C)C)o1
    -30% | i
[50] Cc1c(CC(=O)N2CCCCC2)c(=O)oc2c(C)c3occ(C(C)(C)C)c3cc12
    -27% | -26%
[51] COc1ccc(N2CCN(S(=O)(=O)c3ccc(F)c(C(=O)Nc4ccccc4Cl)c3)CC2)cc1
    ? | ?
[52] C=CCn1c(-c2cccc(Cl)c2)n[nH]c1=S
    -6% | -10%[1.46 µM]
[53] Nc1ccc(C(=O)NNC(=O)C2COc3ccccc3O2)cc1[N+](=O)[O-] (centres undefined)
    -7% | -9%
[54] Cc1ccc(NC(=O)CN(C)C(=O)Cc2c[nH]c3ccccc23)cc1
    -6% | -19%
[55] CN(CC(=O)NC(=O)Nc1ccccc1F)Cc1ccccc1F
    -13% | i
[56] Cc1ccccc1C(=O)N1CC(=O)Nc2ccc(F)cc2C1c1ccccc1 (centres undefined)
    -1% | -5%
[57] O=C(NCCc1cccc(Cl)c1)c1cc([N+](=O)[O-])ccc1Cl
    -17% | -7%
[58] COc1ccc(NC(=O)C2CCCN(S(=O)(=O)c3c(C)n[nH]c3C)C2)c(OC)c1 (centres undefined)
    ? | -4%
[59] CCC(=O)Oc1ccc2ccccc2c1CNC(=O)c1ccccc1
    -15% | -29%
[60] O=C(COc1ccccc1Cl)NCCCNC(=O)c1ccncc1
    2% | -14%

Brought forward from above: three entries, followed by the next part.
Under each structure: Vaccinia Venus | Vaccinia mCherry
[58] COc1ccc(NC(=O)C2CCCN(S(=O)(=O)c3c(C)n[nH]c3C)C2)c(OC)c1 (centres undefined)
    ? | -4%
[59] CCC(=O)Oc1ccc2ccccc2c1CNC(=O)c1ccccc1
    -15% | -29%
[60] O=C(COc1ccccc1Cl)NCCCNC(=O)c1ccncc1
    2% | -14%
[61] COC(=O)CCCC1=CC2=C(c3ccccc3)C(=O)C(C)(OC(=O)C3CCCC3)C(=O)C2=CN1Cc1ccco1 (centres undefined)
    -3% | i
[62] Clc1ccccc1CNCc1ccncc1
    -7% | -29%
[63] CCOc1ccc(CCNC(=O)CSc2ncn[nH]2)cc1OCC
    -3% | -12%
[64] O=C(O)CCNC1C=CS(=O)(=O)C1 (centres undefined)
    -12% | -15%
[65] Cc1csc(NC(=O)CSc2nccn2C)n1
    -21% | -10%
[66] O=C(NC1CC1)c1ccc(NS(=O)(=O)c2ccccc2)cc1
    -5% | -6%
[67] O=C(COC(=O)c1ccc2ccccc2c1)NCc1ccccc1
    -4% | -13%
[68] CCCC1c2ccc(C)n2CCN1C(=O)Nc1ccccc1Cl (centres undefined)
    -1% | /
[69] Fc1ccc(-c2csc(-c3nc(-c4ccc(Br)s4)cs3)n2)cc1
    -3% | 1%
[70] O=C(OCC1CCCO1)c1ccc2c(c1)N(Cc1ccc(F)cc1)C(=O)c1ccccc1S2(=O)=O (centres undefined)
    -11% | -18%
[71] O=C(COC(=O)c1cccs1)NCC1CCCO1 (centres undefined)
    4% | /
[72] COC(=O)[C@@]12C[C@@H](CC(=O)NCC3CCCCC3)C(=O)N(Cc3ccc4c(c3)OCO4)C1=CCC(C)(C)C2
    ? | ?
[73] CCOc1ccc2ccccc2c1/C=N\NC(=O)c1ccc([N+](=O)[O-])cc1
    -12% | -13%
[74] COc1ccc(Nc2ncnc3c2nc2n3CCCCC2)cc1
    -1% | 2%
[75] CCN(CC)S(=O)(=O)c1ccc(-c2nnc(SCC(=O)N3c4ccccc4CC3C)o2)cc1 (centres undefined)
    ? | 0.63µM*
[76] CCCCNS(=O)(=O)CCNCc1ccc(OC)cc1
    ? | ?
[77] O=c1c2c(n3cnnc3n1C1CCCCC1)-c1ccccc1CC21CCCCC1
    -6% | -10%
[78] COc1ccc(OC(=O)c2cc3ccccc3o2)cc1
    5% | 0%
[79] COC(=O)c1ccc(NCc2cc(O)ccc2O)cc1
    ? | 10µM*
[80] COc1ccc2cc(C(C)C(=O)NC3CCC(O)CC3)ccc2c1 (centres undefined)
    0% | 1%
[81] O=C(Nc1nc2ccccc2n1CCN1CCOCC1)c1cn(-c2ccccc2)nc1-c1ccccc1
    ? | 28µM*
[82] C/C(=N\NC(=O)C1CCCC1)c1ccc(Cl)cc1Cl
    -13% | i
[83] CC(=O)c1ccc(-c2nc3ccccc3n2C)o1
    -29%&-20% | -9%
[84] O=c1[nH]c(=O)n(-c2cccc(Cl)c2)c(O)c1C=NCCCN1CCOCC1
    -26% | /
[85] O=C(c1ccco1)N1CCN(C(=S)NC2CC3CCC2C3)CC1 (centres undefined)
    -1% | -8%
[86] Cc1ccc(S(=O)(=O)N(Cc2n[nH]c(=S)n2-c2ccccc2)c2cccc(Cl)c2)cc1
    -8% | i
[87] Nc1nc(C2C(=O)CCCC2=O)cs1
    -9% | i
[88] O=C(NCC1CC1)c1cc2c(c(-c3cccc(-c4ccccc4F)c3)n1)[C@H](CCO)N(C(=O)CC1CC1)C2
    ? | ?
[89] O=c1c2[nH]c3ccc(Cl)cc3c2ncn1Cc1ccccn1
    -10% | -12%
[90] Cc1ccc(/C(N)=N/OC(=O)COc2cccc3ccccc23)cc1
    -13% | i
[91] O=C(Cn1ncc2c3ccccc3n(Cc3ccccc3F)c2c1=O)N1CCCCC1
    -18% | -25%
[92] COc1ccc(-c2cc(C(F)(F)F)nc(SCCC(=O)Nc3cc(C)ccc3O)n2)cc1
    -18% | -26%
[93] O=C(N1CCN(Cc2ccc3c(c2)OCO3)CC1)C(Cl)(Cl)Cl
    -21% | -25%
[94] COCCn1c(-c2ccccc2)nc2oc3ccccc3c(=O)c2c1=O
    -7% | -1%
[95] Cc1ccc(N)c([N+](=O)[O-])c1
    -11% | 0%
[96] O=C(Nc1nc2cc3c(cc2s1)OCCO3)c1ccc([N+](=O)[O-])o1
    -30% | ?
[97] Clc1cccc(Cl)c1CO/N=C/c1cccs1
    -2% | i
[98] c1ccc(-c2nn3c(-c4ccco4)nnc3s2)nc1
    -5% | /
[99] COc1cc(SC)ccc1C(=O)Nc1ccccn1
    -22% | -13%
[100] COc1cc(C(=O)Nc2cc(C)ccc2OCc2cc(=O)n3c(C)csc3n2)cc(OC)c1OC
    -6% | -11%
[101] O=C(N/N=C/C=C/c1ccccc1)c1cccc(Br)c1
    -20% | -21%
[102] CC1(C)CCC(=O)N(c2ccccc2)C1=O
    -3% | -22%
[103] FC(F)(F)c1cc(C(F)(F)F)c2ccc(N3CCOCC3)nc2n1
    -4% | -14%
[104] Cc1cccc(C)c1NC(=O)CN(C)CC(=O)Nc1ccccc1Oc1ccccc1
    -12% | i
[105] Cc1ccc(S(=O)(=O)N2CCCC2C(=O)NCc2ccco2)cc1 (centres undefined)
    -6% | -9%
[106] COc1cc(NC(=O)CN2C(=O)COc3ccc(S(=O)(=O)N4CCCC4)cc32)cc(OC)c1
    -21% | -9%
[107] CCOc1ccccc1C(=O)Nc1cc(C(=O)NCCc2ccccc2)ccc1Cl
    -16% | i
[108] CCN1C(=O)/C(=C\N2CCN(C)CC2)SC1=S
    3% | /
[109] CC(C)(C)NC(=O)CN(Cc1ccccc1)S(=O)(=O)c1ccccc1
    -14% | i
[110] COC(=O)CN(C(=O)CSc1nnc(-c2cccc(OC)c2)o1)c1ccc(OC)cc1
    -3% | /
[111] CCOC(=O)c1c(-c2ccc(Br)cc2)csc1NC(=O)c1ccc(C(C)(C)C)cc1
    -9% | i
[112] CC1NC(=O)NC1CCCCC(=O)O (centres undefined)
    -16% | -2%
[113] COc1ccc(N2CC(C(=O)Nc3ccc(S(=O)(=O)N4CCOCC4)cc3)CC2=O)cc1 (centres undefined)
    -20% | -6%
[114] COC(=O)N/N=C(\C)c1ccccc1Br
    -5% | -22%
[115] CCCS(=O)(=O)c1nc(S(=O)(=O)c2ccc(C)cc2)c(N2CCC3(CC2)OCCO3)s1
    -10%[7.34 µM] | 0%[7.34 µM]
